Compound activity deposited in PubChem by National Center for Advancing Translational Sciences (NCATS).
A647 fluor: compound fluoresces in the A647 spectral region. max dye-equivalent concentration, M. 59,000 tested, under 10 active. AID 592. Compound fluorescence, A647 channel (570/671 nm), Tris buffer; active means above 1 µM dye equivalent; inconclusive means 0.1 to 1 µM; inactive means 0.1 µM or less;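 note: values scaled relative to a standard on each plate; highest value over a series up to 38 µM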
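Compound fluorescence was measured in 100 mM Tris buffer, pH 8.0, after 15 min at room temperature, using 570 nm excitation and 671 nm emission filters. Signal was normalized to a per-plate Alexa 647 standard curve and expressed as dye-equivalent concentration at each compound concentration.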
AID923: qHTS Assay for Allosteric/Competitive Inhibitors of Caspase-1: Spectroscopic Profiling in AFC Spectral Region. AID 923, 2007. compound fluorescence, AFC spectral region (405/520 nm); almost no hit is shown here. actives 1.1% (n = 75,000). Potency, µM (titrated, usually from 57.5 µM), for the others: top-dose fluorescence increase, hits mostly activators; active = well fitted activation curve with a large enough effect; inconclusive = small, poorly fitted or top-dose-only effect;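 note: potency is the fitted concentration of half-maximal effect; 0% is about no effect; scaled to a free AFC standard on each plate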
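Baseline compound fluorescence (AFC region, 405 nm ex/520 nm em) taken from the intercept of kinetic reads with 50 nM caspase-1 and 5 uM Ac-WEHD-AFC; normalized to an on-plate AFC standard curve; compounds titrated up to 57 uM.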
Resorufin autofl: resorufin region autofluorescence | Compound fluorescence, resorufin region 547/598 nm, buffer; hits give high values | max dye-equivalent concentration, M | actives 0.04% (n = 59,000) | AID 588; active = above 10 nM dye equivalent; inconclusive = 1 to 10 nM; inactive = 1 nM or less; a few of its hits are not listed in these tables; note: highest value over a series up to 38 µM
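Read-out: intrinsic compound fluorescence at ex 547/em 598 nm after 15 min at RT in pH 8.0 Tris (100 mM). Values expressed as resorufin-equivalent concentration from per-plate standard series.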
A488 autofl: compound fluoresces in the A488 spectral region; max dye equivalency, M; compound autofluorescence, A488 spectral region, dye equivalency; hits give high values; actives 0.1% (n = 59,000); active = above 10 nM dye equivalent; inconclusive = 1 to 10 nM; inactive = 1 nM or less; about half of its hits are not listed in these tables;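 note: highest value over a series up to 38 µM; compound alone in buffer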
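Readout is A488 dye-equivalent concentration, calibrated by a per-plate six-point Alexa 488 series. Compounds in 100 mM Tris buffer pH 8.0 were incubated 15 min at room temperature. Plates were imaged using 480 nm excitation/540 nm emission filters.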
TSHR ag: activates the human thyroid stimulating hormone receptor. P16473. HEK293-CNG-TSHR cells (CNG channel as cAMP sensor), membrane potential dye, cAMP. Potency, µM (top dose mostly 57.1 µM), for the others: at the top dose activation, hits mostly activators. actives 0.48% (n = 73,000). AID 926; active = well fitted activation curve of enough size with the parental cells flat; inconclusive = any curve in the parental cells; inactive = parental cells flat and receptor cells flat or falling; note: potency is the fitted concentration of half-maximal effect; % of control where 0% means no effect; weak receptor curves with flat parental cells got no call and are not listed
Target sequence (P16473 whole entry, looked up): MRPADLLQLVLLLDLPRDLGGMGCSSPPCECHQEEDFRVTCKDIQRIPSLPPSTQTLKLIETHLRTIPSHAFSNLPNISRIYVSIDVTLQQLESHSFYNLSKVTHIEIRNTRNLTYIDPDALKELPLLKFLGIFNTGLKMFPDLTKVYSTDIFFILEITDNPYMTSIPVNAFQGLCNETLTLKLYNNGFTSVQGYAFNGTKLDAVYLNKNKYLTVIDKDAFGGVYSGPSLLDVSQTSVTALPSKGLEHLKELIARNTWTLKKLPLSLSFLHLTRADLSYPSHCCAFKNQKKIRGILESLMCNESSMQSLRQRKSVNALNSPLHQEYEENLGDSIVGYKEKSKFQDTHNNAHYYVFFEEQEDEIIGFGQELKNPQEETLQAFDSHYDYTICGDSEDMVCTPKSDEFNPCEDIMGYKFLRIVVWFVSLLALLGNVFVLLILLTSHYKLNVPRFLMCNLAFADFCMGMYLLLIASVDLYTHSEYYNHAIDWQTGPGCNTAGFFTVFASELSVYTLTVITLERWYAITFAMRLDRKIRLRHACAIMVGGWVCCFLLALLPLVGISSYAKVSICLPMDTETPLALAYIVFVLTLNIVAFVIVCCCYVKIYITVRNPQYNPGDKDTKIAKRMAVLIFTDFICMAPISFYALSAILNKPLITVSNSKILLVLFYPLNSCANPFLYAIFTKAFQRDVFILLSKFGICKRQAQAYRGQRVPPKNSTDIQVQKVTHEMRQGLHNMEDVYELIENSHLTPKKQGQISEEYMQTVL
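HEK 293 cells stably expressing TSHR and a modified CNG channel, with CNG-only parental cells as counterscreen, were preloaded 60 min at room temperature with membrane potential dye containing 100 uM RO 20-1724. Compound exposure was 30 min, and depolarization was read as fluorescence at 590 nm.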
Numbers without * were called inactive; i = inactive; ? = inconclusive; . = not tested or not shown; & = joins results of further samples; [ ] = remark or other dose.

item	Structure	A647 fluor	AID923	Resorufin autofl
1	COc1ccc(CCNC(=O)C2CCCN2C(=O)Nc2cccc(C(C)=O)c2)cc1OC (centres undefined)	8e-09	-0.5%	i
2	O=C(CSc1nc2ccccc2c(=O)n1Cc1ccc(C(=O)NC2CC2)cc1)NCc1ccco1	2.98e-08	-1.5%	i
3	Cc1onc(-c2ccccc2)c1C(=O)Nc1sc2c(c1C(N)=O)CCC2	7.8e-09	1.0%	i
4	CCCCCn1c(CN2CCN(CCO)CC2)nc2c1c(=O)n(C)c(=O)n2C	.	-4.2%	.
5	CCCc1[nH][nH]c(=O)c1C(c1ccccc1)C(C#N)C#N (centres undefined)	1e-09	2.6%	i
6	C=CCNC(=O)C(C)N1C(=O)c2ccccc2C1=O (centres undefined)	1e-09	1.2%	i
7	CNc1ncnc(Sc2nc(N)nc3nc[nH]c23)c1[N+](=O)[O-]	3.91e-08	0.5%[11.5 µM]	i
8	COC(=O)c1c(C)n(-c2ccccc2)c2ccc(O)cc12	1e-09	-0.6%	i
9	O=C1CCC[C@H]1C(=O)Nc1ccc2ccccc2c1	3.25e-08	-1.3%[11.5 µM]	i
10	NNC(=O)Cc1cccnc1	1e-09	0.6%[11.5 µM]	i
11	Cc1csc(Sc2nc3c(c(=O)[nH]c(=O)n3C)n2CCCc2ccccc2)n1	3.57e-08	0.3%	i
12	COCCCNc1ncnc2c1cnn2-c1ccc(C)cc1C	1e-09	0.1%	i

item	A488 autofl	TSHR ag
1	i	-0.5%
2	i	22.7%
3	i	4.0%
4	.	-15.4%
5	i	14.4%
6	i	0.8%
7	i	8.2%[11.4 µM]
8	i	15.5%
9	i	7.0%[11.4 µM]
10	i	-2.9%[11.4 µM]
11	i	7.5%
12	i	-5.6%

Remaining list, next part.
item	Structure	A647 fluor	AID923	Resorufin autofl
13	COc1cc(C)c(Br)cc1S(=O)(=O)N1CCOCC1	2.8e-08	0.5%	i
14	CCOCC(=O)Nc1ccc(S(=O)(=O)NCCc2ccccc2)cc1	1e-09	-1.5%	i
15	O=C(NCCCN1CCOCC1)c1cc2cc(Cl)cc(Cl)c2oc1=O	4.1e-08	1.1%	i
16	COc1cc2[nH]c(=S)n(CCN3CCCCC3C)c(=O)c2cc1OC (centres undefined)	5.8e-09	0.3%	i
17	O=C(CCN(CCO)Cc1ccccc1)Nc1ccc(Br)cc1	1e-09	1.0%	i
18	O=C(COC(=O)C1CC(=O)N(C2CCCCC2)C1)c1ccc(F)cc1 (centres undefined)	.	-0.7%	.
19	O=C(c1coc2ccc(O)c(CN3CCOCC3)c12)C1CC1	3.29e-08	-0.9%	i
20	CCSc1nnc(NC(=O)c2cccs2)s1	.	-0.6%	.
21	CO[C@H]1COC(=O)[C@H](C)COC(=O)C/C=C\[C@@H](C)[C@H](OC)COC(=O)C/C=C\[C@@H]1C	.	2.3%[11.5 µM]	.
22	C[C@@H](C(=O)NCc1ccc(S(C)(=O)=O)cc1)[C@H]1C[C@]1(C)[C@H](NC(=O)OCc1ccccc1)c1ccccc1	.	1.1%	.
23	O=c1c(/C=N/O)c(Nc2ccccc2)nc2ccccn12	.	3.4%	.
24	CNC(=O)c1cc2cc(Cl)cc(OC)c2oc1=O	1.61e-08	1.2%	i

item	A488 autofl	TSHR ag
13	i	-0.2%
14	i	6.4%
15	i	2.9%
16	i	6.6%
17	i	?
18	.	1.2%
19	i	?
20	.	-1.0%
21	.	-7.3%[11.4 µM]
22	.	20.5%
23	.	11.2%
24	i	3.3%

Later entries:
item	Structure	A647 fluor	AID923	Resorufin autofl
25	Cc1c(S(=O)(=O)N2CCN(C(=O)c3ccco3)CC2)c(=O)n(C)c(=O)n1C	.	0.6%	.
26	CCNC(=O)[C@H](C)/C=C/C(NC(=O)OCc1ccccc1)c1ccc(C(=O)OC)cc1 (some centres undefined)	.	0.7%	.
27	O=C(O)c1ccc(NS(=O)(=O)c2cccc3cccnc23)cc1	.	-1.3%	.
28	CC(C)[C@@H](C(=O)O)N1C(=O)c2ccccc2C1=O	4.2e-09	7.9%[11.5 µM]	i
29	CCCn1nc(Oc2nc(SC)nc(N(C)C)n2)ccc1=O	2.15e-08	.	i
30	COc1ccc(CCNC(=O)C2CCN(S(=O)(=O)N3CCCCC3)CC2)cc1OC	1e-09	0.4%	i
31	CC(C)CCn1cnc2c(c1=O)c1nc3ccccc3nc1n2Cc1ccc2c(c1)OCO2	5.6e-09	1.6%	i
32	COc1cc2c(=O)n(Cc3ccccc3)c(=O)n(CC(=O)C(C)(C)C)c2cc1OC	1.6e-09	0.9%	i
33	O=C(Oc1cccc2c(OC(=O)N3CCOCC3)cccc12)N1CCOCC1	1e-09	2.1%	i
34	CC12C=C(/C=C/c3ccc(F)cc3)C(C)(C1)C(c1ccc(F)cc1)CC2=O (centres undefined)	.	0.7%[11.5 µM]	.
35	CCOC(=O)NC1(Nc2ccc(Cl)cn2)Oc2ccccc2O1	1.88e-08	1.7%	i
36	Cc1cc2cc3c(cc2nc1SCC(=O)O)OCCO3	2.11e-08	0.6%	i

item	A488 autofl	TSHR ag
25	.	0.6%[11.4 µM]
26	.	?
27	.	2.6%
28	i	3.8%[11.4 µM]
29	i	.
30	i	5.1%
31	i	4.6%
32	i	?
33	i	-0.3%
34	.	3.2%[11.4 µM]
35	i	-3.4%
36	i	2.0%

The list goes on:
item	Structure	A647 fluor	AID923	Resorufin autofl
37	CCc1c(C)c2c(C)nn(-c3ccccc3)c2[nH]c1=O	.	-2.0%	.
38	CCOc1ccc(OCC)c(NC(=O)C2CCN(S(=O)(=O)c3c(C)noc3C)CC2)c1	1e-09	-1.7%	i
39	COc1ccc(OCC2CN3C(CCC(C)C3c3ccc(Br)cc3)C(=O)O2)cc1 (centres undefined)	.	-2.3%&0.7%[11.5 µM]	.
40	CCN(CC)Cc1cc(C(C)=O)ccc1OCC(C)C	2e-09	.	i
41	Cc1c(NC(=O)c2ccc3c(c2)OCO3)c(=O)n(-c2ccccc2)n1C	.	-1.2%	.
42	COc1ccc(N2CCN(S(=O)(=O)c3ccc(Cl)c(C(F)(F)F)c3)CC2)cc1	2.5e-09	-1.1%	i
43	CCn1nnc(NC(=O)C(C)Oc2ccc(Cl)cc2Cl)n1 (centres undefined)	2.33e-08	0.2%	i
44	Cc1cnc(NC(=O)CSc2ncc(-c3ccccc3)n2Cc2ccco2)s1	5.9e-09	0.0%	i
45	CCOC(=O)C1CN(c2cc3c(cc2F)c(=O)c(C(=O)O)cn3CC)OC1C(=O)OCC (centres undefined)	3.3e-09	1.4%	i
46	CCCn1nc(NC(=O)c2ccncc2)c2cc3ccccc3nc21	7.1e-09	12.5%	i
47	Cc1noc(C)c1-c1cc(N2CCN(C)CC2)ncn1	3.4e-09	-0.3%	i

item	A488 autofl	TSHR ag
37	.	-3.8%[11.4 µM]
38	i	1.5%
39	.	?
40	i	.
41	.	6.0%[11.4 µM]
42	i	-14.6%
43	i	2.8%
44	i	?
45	i	3.2%
46	i	22.3%
47	i	?

Molecules listed so far that contain a halogen (11):
item	Structure	A647 fluor	AID923	Resorufin autofl
13	COc1cc(C)c(Br)cc1S(=O)(=O)N1CCOCC1	2.8e-08	0.5%	i
15	O=C(NCCCN1CCOCC1)c1cc2cc(Cl)cc(Cl)c2oc1=O	4.1e-08	1.1%	i
17	O=C(CCN(CCO)Cc1ccccc1)Nc1ccc(Br)cc1	1e-09	1.0%	i
18	O=C(COC(=O)C1CC(=O)N(C2CCCCC2)C1)c1ccc(F)cc1 (centres undefined)	.	-0.7%	.
24	CNC(=O)c1cc2cc(Cl)cc(OC)c2oc1=O	1.61e-08	1.2%	i
34	CC12C=C(/C=C/c3ccc(F)cc3)C(C)(C1)C(c1ccc(F)cc1)CC2=O (centres undefined)	.	0.7%[11.5 µM]	.
35	CCOC(=O)NC1(Nc2ccc(Cl)cn2)Oc2ccccc2O1	1.88e-08	1.7%	i
39	COc1ccc(OCC2CN3C(CCC(C)C3c3ccc(Br)cc3)C(=O)O2)cc1 (centres undefined)	.	-2.3%&0.7%[11.5 µM]	.
42	COc1ccc(N2CCN(S(=O)(=O)c3ccc(Cl)c(C(F)(F)F)c3)CC2)cc1	2.5e-09	-1.1%	i
43	CCn1nnc(NC(=O)C(C)Oc2ccc(Cl)cc2Cl)n1 (centres undefined)	2.33e-08	0.2%	i
45	CCOC(=O)C1CN(c2cc3c(cc2F)c(=O)c(C(=O)O)cn3CC)OC1C(=O)OCC (centres undefined)	3.3e-09	1.4%	i

item	A488 autofl	TSHR ag
13	i	-0.2%
15	i	2.9%
17	i	?
18	.	1.2%
24	i	3.3%
34	.	3.2%[11.4 µM]
35	i	-3.4%
39	.	?
42	i	-14.6%
43	i	2.8%
45	i	3.2%

This is a subset (hit frequency here may not be typical).
